YB-1 expr inh = YB-1 expression inhibition; U2OS, qRT-PCR YB-1 vs CDIP delta delta Cp, 16 h; stronger effect = higher value; zero = DMSO, each unit about twofold; delta delta Cp (YB-1 minus CDIP) (no concentration beside the values); actives 0.37% (n = 30,000);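 active means delta delta Cp rounded down to an integer at or above 3, about 3 SD of DMSO wells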;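 further: higher means less YB-1 transcript or more CDIP transcript relative to DMSO; stock transfer was 100 nL into about 100 µL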
MITF inh = MITF inhibition. TRPM1 promoter luciferase, luminescence, 24 h. AID 2240. inhibition, % (test concentration not listed). actives 0.28% (n = 37,000);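 active means most replicates at 85% or more, or half of them and the mean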;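 further: human melanocyte line stably carrying TRPM1 promoter luciferase reporter; 0% = vehicle wells and 100% = a positive control; the first replicate is given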
PD-1 reversal = reversal of PD-1 mediated T-cell inhibition | 29,000 tested, under 10 active | primary human CD4 T cells, PD-L1 beads, CellTiter-Glo 96 h | activation, % (test concentration not listed);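 active means replicate mean of 50% or more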;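 further: 0% = median vehicle wells and 100% = positive control; 100 nL library stock added to about 50 µL; numbers are from one replicate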
Shh pathway inh = blocks Sonic Hedgehog signaling. Shh-LIGHT2 Gli-luciferase reporter, 30 h. AID 2313. inhibition, % (concentration not given with the values). actives 2.1% (n = 22,000);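 active means replicate mean of 65% or more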;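 further: pathway switched on by Shh-conditioned medium diluted 1 in 25 in low serum; 100 nL library stock added to about 40 µL; 0% = median of neutral wells and 100% = positive control level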
Starred values were filed as active, the others as inactive; x = no result given.

SMILES	YB-1 expr inh	MITF inh	PD-1 reversal	Shh pathway inh
C[C@@H]1CN([C@H](C)CO)C(=O)c2cc(NC(=O)Nc3ccc(F)cc3)ccc2O[C@@H]1CN(C)C(=O)Nc1cccc2ccccc12	-0.086	1	x	-38
CNC[C@@H]1Oc2ccc(NC(=O)C3CCCCC3)cc2C(=O)N([C@H](C)CO)C[C@H]1C	0.036	3	x	-23
O=C(CSc1nnc2n1CCCN2)c1ccccc1	0.14	-27	0.9	-28
Cc1ccc(S(=O)(=O)N(C)C[C@H]2Oc3ccc(NS(=O)(=O)c4c(C)noc4C)cc3C(=O)N([C@@H](C)CO)C[C@@H]2C)cc1	0.42	-2	-0.6	-90
C[C@@H]1CN([C@H](C)CO)C(=O)c2cc(NC(=O)CCCN(C)C)ccc2O[C@H]1CN(C)Cc1ccc(C(F)(F)F)cc1	0.15	-3	0.8	-29
C[C@H](CO)N1C[C@H](C)[C@@H](CN(C)C(=O)Nc2ccc(F)cc2)Oc2c(NS(=O)(=O)c3ccc(F)cc3)cccc2C1=O	-0.81	0	0.9	-13
C=C(C(=O)O)[C@@H]1CC[C@@]2(C)CCC[C@@](C)(O)[C@@H]2C1	0.29	-11	1.3	-16
O=C(Nc1ccccc1)c1ccc(CSc2nnc(-c3ccncc3)n2-c2ccccc2)cc1	x	33	-0.8	x
O=C(/C=C/Oc1ccc(Cl)cc1)c1ccc(Br)cc1	-0.32	4	-2.1	14
C[C@H]1CN([C@@H](C)CO)C(=O)c2cc(NS(=O)(=O)c3cccs3)ccc2O[C@@H]1CN(C)C(=O)Nc1cccc2ccccc12	-0.31	9	-0.4	-16
COc1ccc(S(=O)(=O)N(C)C[C@H]2Oc3c(NS(=O)(=O)c4ccc(C)cc4)cccc3C(=O)N([C@@H](C)CO)C[C@@H]2C)cc1	-0.12	-6	1.2	-13
Cc1c(Cl)cccc1NC(=O)CSc1nc2sc3c(c2c(=O)[nH]1)CCCC3	x	1	1.9	x
O=C(CSc1nc2c(c(C(F)(F)F)n1)CCc1ccccc1-2)Nc1ccc(Cl)cc1	x	14	1.5	x
C[C@H](CO)N1C[C@H](C)[C@H](CN(C)CC2CC2)Oc2c(NC(=O)c3ccc(-c4nccs4)cc3)cccc2C1=O	-0.0058	-7	2.0	10
C[C@@H]1CN([C@H](C)CO)C(=O)Cc2cc(NC(=O)c3ccncc3)ccc2O[C@H]1CN(C)S(=O)(=O)c1cccs1	0.062	0	0.0	-18
Cc1c(C)c(C)c(CN2C(=O)c3ccccc3C2=O)c(C)c1C	0.11	-6	-3.7	20
C[C@@H]1CN([C@@H](C)CO)C(=O)c2cc(NC(=O)CCCCCC(=O)Nc3ccccc3N)ccc2O[C@H]1CN(C)C(=O)Nc1ccccc1	0.66	-16	1.0	x
CC(=O)Nc1ccc(C(=O)CSc2nc3ccccc3o2)cc1	x	-83	-0.8	x
COc1ccc(-c2nnc(SCC(N)=O)n2-c2ccc(Cl)cc2)cc1	x	-21	0.3	x
COc1ccc(C(=O)COc2ccc(NC(=O)c3cccc([N+](=O)[O-])c3)cc2)cc1	x	10	1.7	x
CC(NC(=O)c1ccc(Cl)cc1)C(=O)NC(C)(C)CO (stereo unspecified)	x	-17	1.7	x
O=C(Nc1cccc(OCC(=O)N2CCOCC2)c1)c1cccc([N+](=O)[O-])c1	x	-19	0.1	x
COC(=O)c1cccc(NC(=O)Cc2ccccc2[N+](=O)[O-])c1C	x	-29	3.2	x
C[C@@H]1CN([C@H](C)CO)C(=O)c2cc(NC(=O)C3CC3)ccc2O[C@@H]1CN(C)C(=O)Nc1ccccc1	0.03	-2	0.8	x

Brought forward from above: 6 compounds; new compounds follow.
SMILES	YB-1 expr inh	MITF inh	PD-1 reversal	Shh pathway inh
COc1ccc(-c2nnc(SCC(N)=O)n2-c2ccc(Cl)cc2)cc1	x	-21	0.3	x
COc1ccc(C(=O)COc2ccc(NC(=O)c3cccc([N+](=O)[O-])c3)cc2)cc1	x	10	1.7	x
CC(NC(=O)c1ccc(Cl)cc1)C(=O)NC(C)(C)CO (stereo unspecified)	x	-17	1.7	x
O=C(Nc1cccc(OCC(=O)N2CCOCC2)c1)c1cccc([N+](=O)[O-])c1	x	-19	0.1	x
COC(=O)c1cccc(NC(=O)Cc2ccccc2[N+](=O)[O-])c1C	x	-29	3.2	x
C[C@@H]1CN([C@H](C)CO)C(=O)c2cc(NC(=O)C3CC3)ccc2O[C@@H]1CN(C)C(=O)Nc1ccccc1	0.03	-2	0.8	x
COc1cc(-c2coc3cc(OC)c(OC)c(OC)c3c2=O)cc(OC)c1OC	-0.13	3	x	-4
CCOc1ccc(OC(=O)c2cccnc2)cc1	0.0038	-10	-0.1	x
CCOC(=O)C1CCCN(Cc2nc(N)nc(Nc3ccc(C)cc3)n2)C1 (stereo unspecified)	x	42	-0.7	x
C[C@H](CO)N1C[C@H](C)[C@@H](CN(C)S(=O)(=O)c2ccc(F)cc2)Oc2ccc(NC(=O)Nc3cccc4ccccc34)cc2C1=O	-0.037	-2	-0.9	-6
CC(C)NC(=O)Nc1ccc2c(c1)C(=O)N([C@H](C)CO)C[C@H](C)[C@H](CN(C)C(=O)NC(C)C)OCCCC[C@@H](C)O2	-0.48	-10	x	-1
C[C@@H]1CN([C@H](C)CO)C(=O)Cc2cc(NC(=O)Nc3ccc(C(F)(F)F)cc3)ccc2O[C@H]1CN(C)S(=O)(=O)c1ccc(Cl)cc1	1.6	68	-5.3	60
CCN(CC)C(=O)CSc1nc(N)cc(=O)[nH]1	x	-1	-0.9	x
C[C@@H]1CN([C@@H](C)CO)C(=O)Cc2cc(NS(=O)(=O)c3ccc(Cl)cc3)ccc2O[C@@H]1CN(C)S(C)(=O)=O	-0.31	-3	x	-21
C[C@@H]1CN([C@H](C)CO)C(=O)Cc2cc(NC(=O)Nc3ccc4c(c3)OCO4)ccc2O[C@@H]1CN(C)S(=O)(=O)c1cccs1	-0.029	-4	x	-20
C[C@H](CO)N1C[C@H](C)[C@@H](CN(C)Cc2ccncc2)Oc2c(NC(=O)c3ccncc3)cccc2C1=O	-0.24	-4	2.6	-27
C[C@@H]1CN([C@H](C)CO)C(=O)c2cccc(NS(=O)(=O)c3ccc(Cl)cc3)c2O[C@@H]1CN(C)S(=O)(=O)c1ccc(Cl)cc1	-0.16	0	x	23
C[C@H]1CN([C@@H](C)CO)C(=O)c2cc(NS(C)(=O)=O)ccc2O[C@H]1CN(C)Cc1ccc(C(F)(F)F)cc1	-0.063	-12	1.3	x
Cc1noc(C)c1NC(=O)N(C)C[C@@H]1Oc2ccc(NC(=O)Nc3ccc4c(c3)OCO4)cc2C(=O)N([C@@H](C)CO)C[C@@H]1C	-0.17	5	0.0	-12
COC(=O)C1=C(C)NC(C)=C(C(=O)OCCSc2ccccc2)C1C (stereo unspecified)	-0.25	-24	x	-33
COc1ccc(S(=O)(=O)N(C)C[C@@H]2OCCCC[C@@H](C)Oc3ccc(NC(=O)Nc4ccc(F)cc4)cc3C(=O)N([C@H](C)CO)C[C@@H]2C)cc1	0.07	-5	-0.5	16
COc1cc(Cl)c(C)cc1NC(=O)CN(C)S(=O)(=O)c1ccc2ccccc2c1	x	12	0.8	x
C[C@H](CO)N1C[C@H](C)[C@@H](CN(C)S(=O)(=O)c2ccc(F)cc2)Oc2ccc(NC(=O)CCCN(C)C)cc2C1=O	-0.12	5	-0.8	x
Cc1noc(C)c1S(=O)(=O)N(C)C[C@@H]1OCCCC[C@@H](C)Oc2ccc(NC(=O)c3ccccc3)cc2C(=O)N([C@H](C)CO)C[C@@H]1C	-0.073	1	x	-22
C[C@H]1CN([C@@H](C)CO)C(=O)Cc2cc(NS(=O)(=O)c3ccc(Cl)cc3)ccc2O[C@H]1CN(C)Cc1ccc(C(F)(F)F)cc1	-0.28	10	0.1	-36
O=C(CSc1nc2ccc(C(=O)c3ccccc3)cc2[nH]1)Nc1cccc(Cl)c1	x	11	1.6	x
Cc1ccc([N+](=O)[O-])cc1NC(=O)CSc1nnc(-c2ccc(Br)cc2)o1	x	-5	-2.0	x
Cc1noc(C)c1S(=O)(=O)Nc1ccc2c(c1)C(=O)N([C@H](C)CO)C[C@H](C)[C@H](CN(C)S(=O)(=O)c1ccccc1)OCCCC[C@@H](C)O2	0.34	-2	-6.2	19
C[C@H](CO)N1C[C@H](C)[C@@H](CN(C)Cc2ccc(C(F)(F)F)cc2)Oc2ccc(NS(=O)(=O)c3cccs3)cc2C1=O	0.49	-10	-3.4	x
Cc1noc(C)c1S(=O)(=O)N(C)C[C@@H]1Oc2ccc(NS(=O)(=O)c3ccc(Cl)cc3)cc2CC(=O)N([C@@H](C)CO)C[C@@H]1C	-0.28	-13	-0.3	-14
Cc1noc(C)c1NC(=O)Nc1ccc2c(c1)CC(=O)N([C@H](C)CO)C[C@H](C)[C@H](CN(C)CC1CCCCC1)O2	-0.17	-10	x	6
C[C@@H]1CCCCO[C@@H](CN(C)Cc2ccncc2)[C@@H](C)CN([C@H](C)CO)C(=O)c2cc(NC(=O)Nc3ccc(F)cc3)ccc2O1	-0.14	0	x	-17
C[C@@H]1CN([C@H](C)CO)C(=O)c2cccc(NC(=O)c3cnccn3)c2O[C@H]1CN(C)CC1CCCCC1	-0.28	0	1.2	-17
C[C@@H]1CN([C@H](C)CO)C(=O)c2cc(NC(=O)Nc3ccc(C(F)(F)F)cc3)ccc2O[C@@H]1CN(C)C	0.34	0	-0.7	x
Cc1ccc(S(=O)(=O)N(C)C[C@H]2Oc3ccc(NC(=O)Nc4c(C)noc4C)cc3CC(=O)N([C@@H](C)CO)C[C@@H]2C)cc1	-0.52	-11	2.1	-30
CC(C)NC(=O)Nc1cccc2c1O[C@H](CN(C)C(=O)NC1CCCCC1)[C@H](C)CN([C@H](C)CO)C2=O	0.3	-7	-0.4	-9
C[C@@H]1CN([C@@H](C)CO)C(=O)c2cc(NC(=O)CCN3CCOCC3)ccc2O[C@H]1CN(C)Cc1ccc(Oc2ccccc2)cc1	-0.17	-1	-1.7	22
CCOC(=O)c1ccc(NC(=O)CCc2c[nH]c3ccccc23)cc1	0.85	3	1.3	x
C[C@@H]1CCCCO[C@@H](CN(C)C(=O)C2CCCCC2)[C@@H](C)CN([C@H](C)CO)C(=O)c2cc(NS(=O)(=O)c3ccc(Cl)cc3)ccc2O1	0.62	68	-2.1	x
COc1ccc(NC(=O)Nc2cccc3c2O[C@H](CN(C)Cc2ccc(-c4ccccc4)cc2)[C@H](C)CN([C@@H](C)CO)C3=O)cc1	-0.35	-18	-0.6	18
C[C@@H]1CN([C@H](C)CO)C(=O)Cc2cc(NC(=O)CCCCCC(=O)Nc3ccccc3N)ccc2O[C@@H]1CN(C)C	-0.56	-7	1.5	x
COc1ccc(S(=O)(=O)Nc2cccc3c2O[C@@H](CN(C)S(=O)(=O)c2ccc(OC)cc2)[C@@H](C)CN([C@@H](C)CO)C3=O)cc1	-0.31	5	1.5	-83
C[C@@H]1CN([C@@H](C)CO)C(=O)c2cc(NC(=O)Cn3cnnn3)ccc2O[C@@H]1CN(C)Cc1ccncc1	0.22	-5	2.2	x
CC(=O)c1cc(C)c(O)c(COC2OC(CO)C(O)C(O)C2O)c1O (stereo unspecified)	1.3	x	x	14
C[C@@H]1CN([C@H](C)CO)C(=O)Cc2cc(NS(=O)(=O)c3cccs3)ccc2O[C@@H]1CN(C)Cc1ccc(C(F)(F)F)cc1	0.013	-12	-2.0	11
CC1OC(OC2C(C(=O)O)OC(O[C@H]3CC[C@@]4(C)C(CC[C@]5(C)C4CC=C4C6CC(C)(C)CC[C@]6(C(=O)OC6OC(CO)C(O)C(O)C6O)CC[C@]45C)C3(C)C)C(O)C2O)C(OC2OCC(O)C(O)C2O)C(O)C1O (stereo partly specified)	1.3	-71	1.6	1
COc1ccc(NC(=O)Nc2ccc3c(c2)CC(=O)N([C@@H](C)CO)C[C@H](C)[C@@H](CN(C)Cc2ccc(C(=O)O)cc2)O3)cc1	-0.4	-8	0.8	-22
COc1ccc(C2=Cc3ccccc3C(C)(C)O2)cc1	-0.39	2	-1.0	-12
Cc1ccc(S(=O)(=O)Nc2ccc3c(c2)CC(=O)N([C@H](C)CO)C[C@H](C)[C@H](CN(C)Cc2ccc(C(=O)O)cc2)O3)cc1	0.046	4	x	16
CC(C)NC(=O)Nc1ccc2c(c1)C(=O)N([C@H](C)CO)C[C@H](C)[C@H](CN(C)C(=O)Nc1ccccc1)OCCCC[C@@H](C)O2	-0.22	-11	-0.1	-17
C[C@H]1CN([C@@H](C)CO)C(=O)Cc2cc(NC(=O)c3ccncc3)ccc2O[C@H]1CN(C)C(=O)Nc1ccc(F)cc1	-0.056	1	-0.2	-23
Cn1nnnc1SCC(=O)c1ccc(O)c(O)c1	x	-20	-0.9	x
O=C1OCc2cc3cccc(O[C@@H]4O[C@H](CO[C@@H]5OC[C@@H](O)[C@H](O)[C@H]5O)[C@@H](O)[C@H](O)[C@H]4O)c3c(O)c21	-0.057	-15	2.2	-20
C[C@@H]1CN([C@H](C)CO)C(=O)c2cccc(NS(=O)(=O)c3cccs3)c2O[C@H]1CN(C)C(=O)Nc1ccccc1	-0.026	-7	0.4	-17

Bioassay records: PubChem, Broad Institute

This is a subset; count on the stated rates, not on these rows.
